Bioassay records from PubChem.
Bfl-1 A1 inh = inhibitors of the anti-apoptotic protein A1, read as caspase activation; MEF A1-2A-BIM cells, Caspase-Glo 3/7 luminescence, 3 h; percent of clofoctol response, vehicle zero; caspase activation, % (no concentration beside the values); actives 0.066% (n = 330,000); AID 2462;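 active = over half of replicate activation scores above 10%, or exactly half above 10 with the replicate mean above 10; inconclusive = replicate mean below 10 yet half the replicates above 10; inactive = over half of replicates below 10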;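 also: wells of about 30 µL received 50 nL stock; many hits fall short of the cut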
T cruzi inh = blocks replication of Trypanosoma cruzi; inhibition, % (no concentration beside the values); actives 1.4% (n = 300,000); AID 1885; T. cruzi beta-gal in NIH3T3, luminescence, 90 h;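 active = mean inhibition across valid replicates above about 55%, limit read from the data; inconclusive = mean below that limit but half or more replicates reach it; inactive = mean below it, under half of replicates reach it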;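 also: signal also drops with host cell toxicity which is not excluded here; 0% = plate median of DMSO wells and 100% = zero luminescence signal; higher percent means less beta-gal luminescence so fewer parasites; stock transfer was 50 nL into about 50 µL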
LANA-H2B inh = blocks KSHV LANA binding to histone H2A/H2B; Q9QR71; cell-free LANA-H2A/H2B peptide, fluorescence polarization; inhibition, % (no concentration beside the values); actives 0.6% (n = 320,000); AID 2629; in the data active = inhibition mostly above about 10%, no sharp cut-off; inactive = mostly below about 6.7%;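 also: stock transfer was 7.5 nL into about 10 µL; 0% = median of vehicle wells and 100% = median of positive control wells; one replicate is shown; the record names a cut of 25% in any replicate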
Beta apoptosis = blocks beta cell apoptosis; INS-1E cytokine-induced death, ATP luminescence, 48 h; percent of positive-control rescue, neutral wells zero; protection from apoptosis, % (concentration not given with the values); actives 0.8% (n = 300,000); AID 435005;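 active = all replicates at 75% or more, or half of them and the mean; inconclusive = half reach 75% but not the mean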;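 also: 0% = cytokine-treated negative control wells and 100% = positive control rescue; higher means more ATP so stronger rescue from cytokine killing; wells of about 40 µL received 100 nL stock; the first replicate is given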
Beta2AR agonist = human beta-2 adrenergic receptor agonism by FAP | Am2.2-beta2AR cells, FAP receptor internalization, flow cytometry; reference of the scale not given here | actives 0.43% (n = 340,000) | response, % (test concentration not listed) | P07550;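 active = response above a set limit, near 3 SD of response in nonfluorescent compounds, cut at about 42% in these data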;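 also: stock transfer was 100 nL into about 11 µL; a reference agonist was the positive control; negative values mostly stem from fluorescent compounds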
Target sequence (P07550 whole entry, looked up): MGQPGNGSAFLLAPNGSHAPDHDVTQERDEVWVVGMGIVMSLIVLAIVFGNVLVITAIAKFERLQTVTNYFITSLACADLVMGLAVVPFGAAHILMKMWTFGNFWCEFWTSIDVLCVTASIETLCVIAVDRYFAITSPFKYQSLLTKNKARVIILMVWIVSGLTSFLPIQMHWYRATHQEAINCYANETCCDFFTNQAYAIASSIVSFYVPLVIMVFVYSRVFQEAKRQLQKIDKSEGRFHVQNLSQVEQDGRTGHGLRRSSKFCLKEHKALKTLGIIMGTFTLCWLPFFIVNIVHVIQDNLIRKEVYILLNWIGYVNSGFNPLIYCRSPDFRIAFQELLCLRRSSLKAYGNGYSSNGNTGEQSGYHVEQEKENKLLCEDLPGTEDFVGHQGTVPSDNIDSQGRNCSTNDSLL
RanGTP-Impb inh = disruptors of Ran-importin-beta complex formation – biochemical, FRET, CFP-Ran, YFP-importin-beta, homogeneous, primary screen | cell-free CFP-Ran/YFP-importin-beta FRET ratio | inhibition, % (test concentration not listed) | actives 1.1% (n = 300,000);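 active = most replicates above 15%; inconclusive = exactly half above 15%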;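 also: 0% = DMSO wells and 100% = Ran loaded with GDP instead of GTP; wells of about 40 µL received 100 nL stock; the first replicate is given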
UCH37 DUB inh = blocks the human deubiquitinase UCH37; Q9Y5K5; purified proteasome/UCH37, Ub-AMC cleavage fluorescence; inhibition, % (no concentration beside the values); actives 0.33% (n = 330,000);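 active = mean of two replicates above 20%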;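 also: 0% = compound-free wells with enzyme and 100% = wells lacking proteasome; stock transfer was 100 nL into about 20 µL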
Target sequence (Q9Y5K5 whole entry, looked up): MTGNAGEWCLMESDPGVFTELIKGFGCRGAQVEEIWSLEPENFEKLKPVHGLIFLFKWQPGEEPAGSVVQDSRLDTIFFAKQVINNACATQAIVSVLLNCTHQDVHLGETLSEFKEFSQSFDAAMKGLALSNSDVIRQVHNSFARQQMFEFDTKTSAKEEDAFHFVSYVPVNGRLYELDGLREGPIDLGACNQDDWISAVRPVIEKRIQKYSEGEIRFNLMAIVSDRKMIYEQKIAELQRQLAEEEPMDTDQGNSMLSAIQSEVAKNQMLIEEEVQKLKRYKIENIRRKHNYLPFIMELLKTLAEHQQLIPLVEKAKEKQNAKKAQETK
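Schedule: 30 min plus 25 min, room temperature / Material: human UCH37 within purified proteasomes / Technique: AMC fluorescence intensity at 355/460 nm / Buffer or medium: pH 7.4 Tris-HCl (50 mM) with ovalbumin, ATP-MgCl2, DTT / Controls: wells without proteasome as full block, compound-free enzyme plus substrate as uninhibited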
Calb FLC = affects C. albicans growth with fluconazole. C. albicans CaCi-2 (fluconazole-resistant clinical isolate) + fluconazole, Alamar Blue growth, 48 h. growth inhibition, % (concentration not given with the values). actives 0.57% (n = 300,000);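 active = most replicates above 75%; inconclusive = exactly half above 75%; inactive = most below 75%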;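 also: all wells also contain fluconazole at 8 µg/ml as a sub-toxic cotreatment; 0% = median of DMSO wells and 100% = median of geldanamycin control wells; wells of about 8 µL received 7.5 nL stock; the first replicate is given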
* = called active by the depositor; ? = inconclusive; . = not tested or not shown; + = active, no number.

entry	Compound	Bfl-1 A1 inh	T cruzi inh	LANA-H2B inh	Beta apoptosis	Beta2AR agonist	RanGTP-Impb inh	UCH37 DUB inh	Calb FLC
1	O=C(C1CC1)N1CCN=C1SCc1ccc(Cl)cc1	0.4	0	5.0	-5	-16	-3.2	1.9	1
2	CCc1nnc(NC(=O)CSc2nnc(CNC(=O)c3ccc(OC)c(OC)c3)o2)s1	0.7	-6	0.8	-3	2	2.1	2.1	0
3	CCNC(=O)CN(C1CCCCC1)S(C)(=O)=O	-0.3	-5	4.3	-4	1	5.0	3.1	1
4	CCOc1ccc(CN(C)C(=O)c2ccc(NS(=O)(=O)c3ccc4[nH]c(=O)[nH]c4c3)cc2)cc1	1.6	-1	-1.9	1	-1	2.6	5.4	-9
5	COc1ccccc1NC(=S)N1CCN(C(=O)c2ccco2)CC1	1.7	-3	16*	-1	-5	-1.8	-0.8	-5
6	O=C(c1ccccc1)c1ccccc1NC(=O)C1CCCN1Cc1ccccc1 (stereo not given)	0.8	2	-1.5	.	1	5.2	1.2	-1
7	COC(=O)c1cccc(NC(=O)CSc2nnc(C)n2C)c1	-0.2	-1	-1.1	-2	3	-1.8	1.4	-7
8	CC(=O)c1cc(CN2CCN(Cc3ccc(C)cc3)C(CCO)C2)cs1 (stereo not given)	0.5	46	-3.8	1	-5	4.2	0.7	-8
9	COC(=O)C1CCN(C(=O)c2ccc(Cl)c(S(=O)(=O)NCc3ccco3)c2)CC1	0.4	.	3.4	-14	0	.	0.8	.
10	CCOC(=O)C1=C(COC(=O)[C@@H]2CCCN2S(=O)(=O)c2ccc(C)cc2)NC(=O)NC1C (stereo not given in full)	0.5	-1	1.4	.	-4	-0.3	1.4	-6
11	Cc1cccc(NC(=S)N(CCN2CCOCC2)Cc2cc3cc4c(cc3[nH]c2=O)OCCO4)c1	-0.2	8	-1.4	8	5	-1.4	-34	11
12	O=C(Nc1ccc2oc(=O)ccc2c1)c1ccc2ccccc2c1	-1.4	10	-0.3	-3	-4	-0.1	-9.0	-4
13	CCOC(=O)C1CCCN(C(=O)c2cncc(Br)c2)C1 (stereo not given)	0.8	-13	4.6	-3	7	-0.2	-1.1	10
14	COC(=O)CCn1[nH]c(=O)c2ccccc2c1=O	0.1	-9	.	1	-4	6.9	-2.2	-10
15	NC(=O)COc1ccc(/C=N/NS(=O)(=O)c2ccccc2)cc1	0.3	5	-3.7	.	-9	4.9	.	5
16	O=C(O)c1ccc2oc(=O)c(S(=O)(=O)c3ccc(F)cc3)cc2c1	0.5	-1	-0.3	1	-7	1.4	6.3	-5
17	Cc1ccccc1OCC(=O)Nc1nnc(-c2ccco2)s1	0.8	-11	0.7	-4	-6	-2.5	0.8	-12
18	COCCCNC(=O)c1ccc(Cn2c(=O)c3ccccc3n(Cc3ccccc3C)c2=O)cc1	0.0	11	0.0	-4	-3	3.9	1.1	-6
19	COCc1ccc(CN2CCC(n3nccc3NC(=O)CCOc3ccccc3)CC2)o1	-0.4	-11	-4.2	-2	8	2.7	-0.3	-3
20	COc1ccc(-c2oc3ncnc(N)c3c2-c2ccccc2)cc1	-0.7	7	-1.0	6	-13	-3.0	-186	-7
21	O=C(CCCN1C(=O)c2ccccc2C1=O)Nc1ccccc1	0.4	0	-2.1	-4	-3	0.7	0.6	-4
22	Cc1ccccc1NC(=O)CSc1nnc(Cc2ccccc2)o1	-0.2	-10	8.2	4	1	2.5	0.5	2
23	CN(C)/C=N/c1ncc(-c2ncc(C(F)(F)F)cc2Cl)cn1	?	-12	-5.7	-10	-28	1.6	.	-2
24	C/C(CCc1oc2ccc(Cl)cc2c1-c1ccc(C)o1)=N\O	1.0	-10	-4.0	-1	4	1.6	.	-6
25	CCOC(=O)C(NC(=O)OC(C)C)(Nc1nccs1)C(F)(F)F (stereo not given)	1.4	.	1.1	.	-5	.	-1.0	.
26	CC(C)(C)SCCNC(=O)CN1C(=O)c2cccc3cccc1c23	0.1	0	4.8	.	0	6.5	-25	-6
27	CCC(C(=O)NCc1cccnc1)n1nc(C)c2sc3ccccc3c2c1=O (stereo not given)	0.6	4	-4.0	7	-6	-1.4	-2.3	-1
28	CCOC(=O)CSC1=Nc2ccccc2C2=NC(CC(=O)NCc3ccc(OC)cc3)C(=O)N12 (stereo not given)	-1.2	4	-2.4	-3	-1	-0.4	-0.7	10
29	COc1ccc(-c2ccc(CCC(=O)O)n2-c2ccccc2OC)cc1	-0.4	1	1.4	.	-4	-4.6	-1.7	0
30	Cc1cccc(NC(=O)c2sc(-c3ccccc3)nc2-c2ccc([N+](=O)[O-])cc2)c1	-0.3	56*	1.1	8	-2	4.4	6.2	-1
31	Cc1cccc(C(=O)NCCc2ccc(S(N)(=O)=O)cc2)c1[N+](=O)[O-]	0.6	-11	4.4	-10	7	1.2	.	-6
32	O=C(C1CCCN(S(=O)(=O)c2cc(Cl)ccc2Cl)C1)N1CCCC1 (stereo not given)	-0.6	10	3.1	.	0	1.7	2.1	2
33	C=CCSc1nnc2c(n1)OC(c1cccnc1)N(C(C)=O)c1ccccc1-2 (stereo not given)	2.0	-6	1.3	0	0	-3.9	11	8
34	O=C(CSc1ncn[nH]1)NCc1ccccc1	-0.2	-20	-3.7	0	-8	-0.9	0.4	-7
35	CC(=O)N1CCN(Cc2nc3cc(NC(=O)Nc4ccccc4)ccc3n2C)CC1	-0.2	-26	0.5	1	-3	4.8	5.0	-4
36	O=C(C1=COCCO1)N(Cc1nnc(-c2ccccc2Cl)o1)C1CC1	0.8	.	-5.7	-4	-1	.	2.1	.
37	CC12CC(O)C3c4ccc(O)cc4CCC3C1CC/C2=N\O (stereo not given)	1.5	-7	2.5	-22	1	-3.7	.	3
38	Cc1ccc(S(=O)(=O)Nc2ccc(N=Nc3ccc(O)cc3)cc2)cc1	0.9	3	0.4	-3	4	-1.4	-1.0	-31
39	O=C(O)c1ccccc1-c1csc(-c2ccccc2)n1	-4.1	3	-3.9	-8	3	1.8	0.1	34
40	Cc1ccccc1NC(=S)N1CCN(Cc2ccc3c(c2)OCO3)CC1	0.9	13	7.5	-7	-5	3.5	4.9	-43
41	COc1ccccc1C(=O)NCC(=O)OCC(=O)Nc1ccc2[nH]c(=O)[nH]c2c1	0.1	-9	-4.6	4	-6	-4.4	4.6	4
42	Nc1nn(-c2ccccc2)c(N)c1N=Nc1cccc(F)c1	-0.6	-6	-1.8	-1	8	-1.8	8.2	16
43	Cc1cc(C)c(S(=O)(=O)c2ccccc2)c(Cl)n1	0.0	-5	0.1	1	2	6.4	1.1	11
44	Cc1cc(-n2c(C)cc(C(=O)COc3ccc([N+](=O)[O-])cc3)c2C)no1	0.2	3	-2.0	7	5	0.9	2.9	-15
45	C/C(=N\NC(=O)c1cccc(N/N=C(\C)c2ccc([N+](=O)[O-])cc2)c1)c1ccc([N+](=O)[O-])cc1	-0.1	7	0.1	3	6	-4.4	.	-2
46	CCCCn1c(N)c(N(CCC(C)C)C(=O)COC(=O)c2ccc([N+](=O)[O-])s2)c(=O)[nH]c1=O	-0.1	.	6.2	-3	-4	.	16	.
47	Cc1cc(C)nc(NCC(O)CNc2ccccc2C)n1 (stereo not given)	0.1	1	1.1	-1	0	4.2	5.1	37
48	CCN(CCn1cccn1)Cc1nc(-c2ccc(OC)cc2)no1	-0.4	-8	+	-3	1	-0.2	.	-6
49	Nc1nnc(CC(=O)N/N=C/c2cccc([N+](=O)[O-])c2)s1	2.1	-5	0.4	-5	6	-0.6	.	1
50	Cc1ccc(S(=O)(=O)N(C)CC(=O)N2CCOCC2)cc1	0.2	-5	1.0	2	-4	2.3	5.8	39
51	CCOC(=O)Cn1c(C)cc(COC)c(C#N)c1=O	-0.2	-7	6.8	0	0	.	-73	-5
52	O=C(Cn1ccc([N+](=O)[O-])n1)N1CCCc2ccccc21	0.2	-13	-3.3	1	8	4.4	1.7	-4
53	CCCC1CCC(=NNS(=O)(=O)c2ccc(C)c([N+](=O)[O-])c2)CC1 (stereo not given)	2.5	19	-6.2	-5	-4	0.7	1.5	-18
54	CCn1c(CNC(=O)c2ccc(OC)c(OC)c2)nnc1SCC(=O)c1ccc(OC)cc1	0.8	3	-5.6	1	3	-4.4	1.4	1
55	COC(=O)c1cc(OC)c(OC)cc1NC(=O)CCNC(=O)c1ccco1	0.3	5	2.9	-5	-13	-4.1	-4.3	-2
56	Cc1sc(-n2c(C)ccc2C)c(C#N)c1C	0.0	.	3.4	-9	2	4.8	2.2	-3
57	CN1C(=O)C(CC(=O)NCC2CCCCC2)SC1=Nc1ccccc1 (stereo not given)	-1.2	10	-3.0	-1	5	5.9	4.3	-29
58	O=C(COC(=O)Cn1cnc2ccccc21)Nc1ccc2c(c1)OCCO2	-0.4	-13	0.6	-1	-10	3.7	6.6	0
59	CN(C)CCNc1nc(S(=O)(=O)c2ccccc2)c(Cl)s1	0.3	46	-2.2	0	-14	-3.0	1.9	0
60	Cc1cc(N2CCOCC2)nc2ccc(NC(=S)N3CCN(c4ccccc4)CC3)cc12	-0.4	30	3.5	13	-10	-1.8	-9.3	-6

Later entries
entry	Compound	Bfl-1 A1 inh	T cruzi inh	LANA-H2B inh	Beta apoptosis	Beta2AR agonist	RanGTP-Impb inh	UCH37 DUB inh	Calb FLC
61	Cc1ccc(N2C(=O)Cc3ccccc3C2=O)cc1	-0.3	-15	-1.5	.	7	-2.1	1.9	0
62	COc1cc(N)ccc1NC(=O)c1cc2ccccc2o1	-0.7	8	0.0	0	-8	-0.8	2.8	11
63	Fc1ccccc1/C=N/NC(=S)Nc1ccc(Cl)cc1Cl	0.4	-72	4.3	13	-8	0.1	.	36
64	COc1ccc(C)cc1N(C(=O)c1snc(C(N)=O)c1N)C(C(=O)NC1CCCCC1)c1ccc(C)o1 (stereo not given)	.	32	.	.	-8	-0.6	-32	11
65	CCn1nc(C)cc1C(=O)N1CCCC(Nc2ccc(F)c(F)c2)C1 (stereo not given)	-0.2	5	1.1	-1	16	0.1	-1.0	-6
66	Cc1ccc(-c2nnn(CC(=O)N(CC(=O)NC3CCCCC3)c3cnc4ccccc4c3)n2)o1	-0.1	-3	2.4	-1	-5	?	2.8	10
67	O=C(NC1CCc2ccccc21)c1cc(COc2cncc(Cl)c2)on1 (stereo not given)	-0.3	14	1.9	-1	5	?	3.3	24
68	Cc1nn(CCCC(=O)Nc2c(F)cc(F)cc2Br)c(C)c1[N+](=O)[O-]	-0.1	-16	1.3	7	-6	3.2	1.6	3
69	N#Cc1ccc(COC(=O)CSc2nnc(N)s2)cc1	0.6	3	4.2	-3	2	-4.4	3.7	-5
70	COc1ccc(CC(=O)NCCS(=O)(=O)N2CCN(c3ccc(F)cc3)CC2)cc1OC	-1.1	9	1.8	.	4	2.4	4.7	-4
71	COc1ccc(C(=O)NCCS(=O)(=O)N2CCCCCC2)cc1	1.8	-3	-0.6	-3	-1	9.8	-0.1	-1
72	CCc1c(C#N)c(SCc2c(C)noc2C)nc2c1C(=O)CC(C)(C)C2	-0.2	11	-1.1	17	6	2.9	0.2	6

Rows are unselected; overall some 4.3% were active at least once.
